D2 PAM = human D2 receptor positive allosteric modulation; P14416; DiscoveRx D2 beta-arrestin cells, luminescence, 90 min; 100% = 57 uM dopamine signal; potentiation, % (no concentration beside the values); 0.23% of 360,000 active; AID 624464; active = potentiation of 50% or more; inconclusive = 30% to 50%; inactive = 30% or less;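 also: compound concentration not given in the record; tested on top of an EC20 dose of dopamine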
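PathHunter beta-arrestin assay in DiscoveRx D2 cells. Compounds were added with an EC20 of dopamine (50 nM final) for 90 min at 37 deg C. Luminescence was read 1 h after detection reagent, with 57 uM dopamine as the EC100 control.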
gsp agonist = agonists of gsp mutant (McCune-Albright syndrome); gsp mutant cells, cAMP HTRF, 30 min; control for the full effect not named in the record; Potency, µM (doses to about 76.9 µM), for inactives: at the highest dose activation (cAMP increase), actives largely listed as activators; 0.13% of 340,000 active; active = well fitted activation curve with a large enough effect; inconclusive = small, poorly fitted or top-dose-only effect, or another doubt; inactive = no such curve, though single readings can be large or run the other way; cell line not stated here;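 also: phosphodiesterase inhibitor Ro 20-1724 added with compounds to block cAMP breakdown; potency is read from the fitted curve at half-maximal effect; nearly all actives have a fitted effect of over 60% in size; about a fifth of the inactives were tested at one dose only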
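Cells stably selected in G418 were plated at 2000/well, grown 16-24 hr, then given compounds in DMSO with the PDE inhibitor […] (300 uM solution added) for 30 min at 37C; cAMP was read by HTRF.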
CtBP-E1A inh = inhibitors of CtBP/E1A interaction. AlphaScreen GST-E1A/His-CtBP binding, 1536-well; hits give low values; control for the full effect not named in the record. activity change, % (test concentration not listed). 0.49% of 340,000 active; in the data active means activity change below about -65%; inconclusive means about -30% to -65%; inactive means above about -30%; also: % is scaled to controls: 0 for no effect and ±100 for the full control effect; compound concentration not given in the record
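Steps: dispense buffer (Tris pH 8.0, NaCl 300 mM, TCEP 1 mM, BSA, Tween 20); add 5X protein mix (GST-E1A, His-CtBP, 125 nM each); pin 23 nL compound; 2 h at 37 °C, dark; add 5X beads (50 ug/mL); 1 h; read.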
gsp antagonist = antagonizes gsp, the McCune-Albright syndrome mutation. AID 624288. 0.4% of 340,000 active. gsp-mutant cells, cAMP HTRF, 30 min; control for the full effect not named in the record. Potency, µM (titrated, usually from 76.9 µM), inactives show at the highest dose activity change, negative = inhibition, actives largely listed as inhibitors; active = falling curve of any shape with a large fitted effect; inconclusive = falling curve, mostly with a smaller effect; inactive = flat or rising curve; cell line not stated here;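 also: intracellular cAMP measured with PDE inhibitor Ro 20-1724 present during compound exposure; potency is read from the fitted curve at half-maximal effect; % is scaled to controls: 0 for no effect and ±100 for the full control effect; nearly all actives have a fitted effect of over 65% in size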
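HTRF cAMP read-out (cAMP-d2 plus anti-cAMP antibody-K in lysis buffer, 30 min RT). Before lysis, cells are exposed to compounds with […] for 30 min at 37C in DPBS containing Ca/Mg, BSA and Tween 20.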
Six1-Eya2 blk = inhibitors of human Six1/Eya2 interaction | Q15475+O00167 | AlphaScreen GST-Six1/His-Eya2 binding, biochemical; hits give low values; control for the full effect not named in the record | activity change, % (test concentration not listed) | 0.56% of 360,000 active | AID 651725; in the data active = activity change below about -65%; inconclusive = about -30% to -65%; inactive = above about -30%; also: % is scaled to controls: 0 for no effect and ±100 for the full control effect; compound concentration not given in the record
Target sequence (O00167 whole entry, looked up): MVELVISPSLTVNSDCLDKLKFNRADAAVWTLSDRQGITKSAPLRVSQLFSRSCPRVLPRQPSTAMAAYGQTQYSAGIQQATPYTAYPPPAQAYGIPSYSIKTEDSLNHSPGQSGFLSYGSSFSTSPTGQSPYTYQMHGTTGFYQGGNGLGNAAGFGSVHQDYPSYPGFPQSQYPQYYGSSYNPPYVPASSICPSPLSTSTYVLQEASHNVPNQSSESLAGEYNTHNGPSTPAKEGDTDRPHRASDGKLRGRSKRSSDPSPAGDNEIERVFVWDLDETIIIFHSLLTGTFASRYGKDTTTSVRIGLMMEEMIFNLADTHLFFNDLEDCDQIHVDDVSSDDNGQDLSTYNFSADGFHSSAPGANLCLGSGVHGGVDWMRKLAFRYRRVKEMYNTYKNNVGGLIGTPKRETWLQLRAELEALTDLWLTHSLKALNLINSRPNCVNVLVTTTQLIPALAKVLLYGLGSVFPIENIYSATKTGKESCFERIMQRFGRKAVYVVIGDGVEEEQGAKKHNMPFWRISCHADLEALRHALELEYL
Target sequence (Q15475 whole entry, looked up): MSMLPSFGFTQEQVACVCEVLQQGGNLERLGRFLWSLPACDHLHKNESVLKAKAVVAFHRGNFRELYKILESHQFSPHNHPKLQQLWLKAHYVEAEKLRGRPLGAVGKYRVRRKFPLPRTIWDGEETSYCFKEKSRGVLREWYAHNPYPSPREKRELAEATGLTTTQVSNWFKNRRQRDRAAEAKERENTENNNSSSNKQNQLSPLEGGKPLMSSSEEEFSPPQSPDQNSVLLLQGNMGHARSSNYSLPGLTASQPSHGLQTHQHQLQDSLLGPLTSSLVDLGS
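AlphaScreen luminescence read after one hour at 37 °C in darkness. Pin-transferred compounds met GST-Six1 and His-Eya2 protein (5X stock 250 nM/500 nM) plus glutathione donor and Ni-chelate acceptor beads (5X, 50 ug/mL).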
D2 agonist = activates the human D2 dopamine receptor; activation, % (test concentration not listed); DiscoveRx PathHunter D2 beta-arrestin, luminescence, 90 min; 100% = 57 uM dopamine signal; AID 624465; P14416; 0.084% of 360,000 active; in the data active = activation above about 40%; inconclusive = about 15% to 40%; inactive = below about 15%; also: compound concentration not given in the record; the text of the record calls up to 30% inactive
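DiscoveRx PathHunter D2 beta-arrestin cells (2,100/well) attached overnight, then compound-stimulated 90 min at 37 C in HBSS/10 mM HEPES/0.1% Tween-20 buffer; beta-galactosidase complementation read by luminescence after 1 h at ambient temperature. Dopamine 57 uM final (EC100) as control.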
The depositor's hits bear a star; ? = inconclusive; . = not tested or not shown; [ ] = remark or other dose. Random draw from the library; about 1.4% have a hit in one of these screens.

Start of the data: the first two records, ahead of the listing:
canonical_smiles | gsp antagonist | CtBP-E1A inh | D2 agonist | Six1-Eya2 blk | gsp agonist | D2 PAM
Cc1nc2nc(SCc3ccc([N+](=O)[O-])cc3)[nH]c2cc1Br | -1% | . | -9.8 | -4 | 11% | -1
O=C(N/N=C/c1ccc(O)cc1)/C(=C/c1ccccc1)CCO | 3% | -10 | -5.4 | 1 | -13%[15.4 µM] | -13

This part in full, from the first entry:
canonical_smiles | gsp antagonist | CtBP-E1A inh | D2 agonist | Six1-Eya2 blk | gsp agonist | D2 PAM
Cc1nc2nc(SCc3ccc([N+](=O)[O-])cc3)[nH]c2cc1Br | -1% | . | -9.8 | -4 | 11% | -1
O=C(N/N=C/c1ccc(O)cc1)/C(=C/c1ccccc1)CCO | 3% | -10 | -5.4 | 1 | -13%[15.4 µM] | -13
NC(=O)C1(C(N)=O)OC1c1ccccc1 (stereo not given) | 3% | . | -2.9 | 12 | 7% | -9
O=[N+]([O-])c1ccc2c(c1)-c1ccccc1C2O (stereo not given) | . | 1 | 2.4 | -27 | -11% | -10
COc1ccc2cc(C#N)c(Cl)nc2c1 | -6% | -6 | -4.3 | 0 | 3%[15.4 µM] | -4
Cc1cc(C(=O)CSc2nnc(-c3ccco3)o2)c(C)n1Cc1ccco1 | 0% | -2 | -2.0 | -9 | 0% | 8
O=C(c1cc(C2CC2)nn1-c1ccccc1)N1CCN(Cc2c(F)cccc2Cl)CC1 | -21% | . | 5.4 | -24 | -9% | -20
Cc1noc(C)c1NC(=O)N(C)C[C@@H]1OCc2cnnn2CCCC(=O)N([C@@H](C)CO)C[C@@H]1C | . | 20 | -2.5 | -10 | -163%[inhibitor] | 2
N=c1c2ccccc2nnn1-c1cccc(C(F)(F)F)c1 | 4% | 3 | 1.0 | 1 | ? | -17
O=C(COc1ccccc1F)N1CCc2ccccc2C1 | 5% | . | -1.7 | -5 | -15% | -1
CC(=O)c1ccc(S(=O)(=O)NCCC(=O)OCC(=O)N2CCCC2=O)cc1 | -4% | 5 | -0.7 | 3 | 30%[15.4 µM] | -3
CN(CC(O)COc1ccc2ccccc2c1)C1CCCCC1 (stereo not given) | -3% | 0 | 0.6 | -7 | 0%[15.4 µM] | -14
CC(=O)NC(c1ccc([N+](=O)[O-])cc1)c1c(O)ccc2ccccc12 (stereo not given) | -30% | -7 | -5.7 | -4 | -23% | -11
Cc1nc(NC(=O)/C=C/c2ccccc2)sc1C(=O)Nc1cccc(Cl)c1 | -14% | 3 | 0.4 | 7 | 4% | 27
CC(=O)NS(=O)(=O)c1ccc(NC(=O)c2ccc(-n3nc(C)cc3C)cc2)cc1 | 0% | -9 | 3.8 | -8 | 13% | -2

Single records (already shown). Order of values: gsp antagonist, CtBP-E1A inh, D2 agonist, Six1-Eya2 blk, gsp agonist, D2 PAM
Cc1noc(C)c1NC(=O)N(C)C[C@@H]1OCc2cnnn2CCCC(=O)N([C@@H](C)CO)C[C@@H]1C as listed: ., 20, -2.5, -10, -163%[inhibitor], 2
CN(CC(O)COc1ccc2ccccc2c1)C1CCCCC1 (stereo not given) as listed: -3%, 0, 0.6, -7, 0%[15.4 µM], -14

(next part)
canonical_smiles | gsp antagonist | CtBP-E1A inh | D2 agonist | Six1-Eya2 blk | gsp agonist | D2 PAM
CCC(C)c1ccc(S(=O)(=O)N2CCN(CC(O)COCC3CCCO3)CC2)cc1 (stereo not given) | -3% | -3 | -4.4 | 1 | -65%[inhibitor] | -9
COc1ccc(CCN=C(NS(=O)(=O)c2ccc(Cl)cc2)c2ccccc2)cc1 | -19% | . | 6.0 | -3 | -11%[15.4 µM] | -9
CCCCn1c(N)c(N(CC(C)C)C(=O)c2cc(-c3ccc(OC)cc3)nc3ccccc23)c(=O)[nH]c1=O | 4% | . | -3.3 | -1 | 3% | 0
CN(C)CCN(C(=O)/C=C/c1cccs1)c1nc2ccc(Br)cc2s1 | 3% | . | -2.1 | 1 | ? | -1
Cc1cc(C)nc(N2CCCC(C(=O)Nc3nc4ccc(S(C)(=O)=O)cc4s3)C2)n1 (stereo not given) | -14% | 3 | -2.4 | 3 | 14% | -7
Cc1cc(Br)ccc1NC(=O)CNC(=O)CSc1ncccn1 | 4% | 6 | -3.3 | 1 | -46%[inhibitor] | -13
COc1ccc(Cl)cc1NC(=O)CN(C)CC(=O)NCc1cccs1 | 3% | . | 3.5 | 23 | 1% | -18
O=C(c1ccc(F)cc1)N1CCN(c2ncccn2)CC1 | 24% | -1 | -1.2 | 8 | 1% | -5
O=[N+]([O-])c1cccc(COc2cccc(CO)c2)c1 | 4% | 8 | 1.0 | 7 | . | -3
COc1ccc(NC(=O)c2ccc3[nH]c(C)c(C)c3c2)c(OC)c1 | ? | -19 | -0.9 | -17 | -33%[inhibitor] | 2
COc1ccc(NC(=O)CSCC(=O)Nc2cccc(S(=O)(=O)N3CCCCCC3)c2)cc1 | -4% | -14 | -2.4 | -1 | -25% | 5
COc1ccc(NC(=O)CSc2nnc(-c3ccccc3C)n2C)cc1 | 0% | 0 | -2.1 | 0 | -24% | -1
Cn1c(SCC(=O)c2ccccc2)nnc1C1CC1 | 17% | 5 | -4.2 | 0 | -14% | -2
COc1ccc(C=C2CCC3C(=O)CCCC3(C)C2=O)cc1 (stereo not given) | . | -16 | -8.8 | 6 | 2% | -16
COC(=O)C1=C(C)N(c2cc(C)cc(C)c2)/C(=C/c2ccco2)C1=O | . | 22 | -2.2 | 4 | -8%[15.4 µM] | -10
Cn1c(N)c(C(=O)COC(=O)c2ccc(Cl)nc2)c(=O)n(C)c1=O | . | -3 | 0.4 | -5 | 24%[15.4 µM] | -8
Nn1c(SCC(=O)NCC2CCCO2)nnc1-c1cc(Cl)ccc1Cl (stereo not given) | 6% | 0 | -4.5 | 7 | 20%[15.4 µM] | 7
COC(=O)c1ccc(C(=O)NC2CCCc3c2cnn3-c2ccc(C)c(C)c2)cc1 (stereo not given) | 27% | -2 | 0.9 | -5 | 11%[15.4 µM] | -11
CCCC1(C(=O)OC)NC(c2cccc(F)c2)C2C(=O)N(CC)C(=O)C21 (stereo not given) | 2% | 2 | -4.2 | 9 | -31%[inhibitor] | -5
CC(=O)OCCn1c([N+](=O)[O-])cnc1C=[N+]([O-])C1CCCCC1 | . | 1 | -0.6 | 12 | 0% | -8
O=[N+]([O-])c1cc(-c2csc(NCCc3nc4cc(C(F)(F)F)ccc4n3CCCO)n2)ccc1Cl | -20% | -5 | -0.6 | -12 | . | -4
CCN(CC(=O)NCc1cccs1)S(=O)(=O)c1cccc(C(C)=O)c1 | 8% | 7 | -3.4 | -2 | 16% | -11
Cc1ccc(C)c(N2CCN(C(=O)Cn3ncc4c([nH]c5ccc(C)cc54)c3=O)CC2)c1 | 5% | . | 0.0 | 3 | -23% | -1
Cc1ccc(NC(=O)c2ccc3nsnc3c2)c(Cl)c1 | 2% | . | 1.5 | -4 | -1% | -3
COc1cccc(NC(=O)C(=O)NCC(c2ccco2)N2CCc3ccccc3C2)c1 (stereo not given) | -5% | -4 | -1.7 | -6 | 1% | 2
Cn1nnc(NC(=O)c2ccc(Br)o2)n1 | 6% | . | -2.3 | 0 | -13% | -6
CC1(C(=O)NC2CCCCCC2)CCC(=O)N1Cc1ccc2c(c1)OCO2 (stereo not given) | -14% | -7 | -1.8 | 6 | 7% | -5
Nc1nc(-c2ccccn2)nc(N)c1Cc1c(F)cccc1Cl | 4% | -92* | -5.1 | -79* | -56%[inhibitor] | -19
COc1ccc(OC)c(-c2cc(C(=O)N/N=C(\C)c3cccnc3)c3ccccc3n2)c1 | -3% | -2 | 1.9 | 3 | 32% | -11
COc1ccc([C@@H]2CC=C(C(=O)O)[C@H](c3ccc(F)cc3)N2S(=O)(=O)c2ccc(Cl)cc2)cc1 | -9% | 1 | -3.4 | -1 | 5% | 1
CC(=O)O/N=C/c1c(N2CCOCC2)n(C)c2ccccc12 | -1% | -1 | 13 | 0 | -24% | 62*
C[C@H](CO)N1C[C@H](C)[C@@H](CN(C)CC2CCCCC2)Oc2ccc(NC(=O)Cn3cnnn3)cc2C1=O | 7% | -2 | -0.3 | -1 | -1% | -7
Cc1noc(NC(=O)c2ccccc2)c1C#N | 1% | 2 | -0.8 | -6 | 26% | ?
O=S(=O)(O)c1ccc(N=NNc2ccc(Br)cc2)cc1 | 16% | -3 | -4.7 | -17 | 1%[15.4 µM] | -8
O=C(CC1c2ccccc2Oc2ccccc21)NCc1ccco1 | 7% | -1 | 0.3 | -1 | -2% | -15
COc1ccccc1NC(=O)C(C)N1C(=O)c2ccccc2C1=O (stereo not given) | 5% | -7 | -5.9 | 3 | -5% | -6
COc1ccccc1N1CCN(C(=O)CCc2ccc(S(=O)(=O)NCC(C)C)cc2)CC1 | -12% | -4 | 0.4 | -2 | -17% | 12
CC(=O)Nc1ccc(S(=O)(=O)Nc2ccc(S(=O)(=O)N3CCCC3)cc2)cc1 | -20% | -5 | -1.3 | -1 | 19% | 5
CCCC(O)(CCC)C(=O)NN(C(=O)OC)c1ccccc1 | 6% | 5 | -2.2 | 12 | 6% | -17
CCC(=O)N/N=C/c1ccc(-c2ccc(Cl)cc2)o1 | -9% | 11 | -2.1 | -25 | -2%[15.4 µM] | -4
COc1ccc(CC(=O)Nc2cccc(-c3nnc(-c4ccco4)o3)c2)cc1 | ? | 1 | -4.6 | -6 | -5%[15.4 µM] | -1
CC1CCCC/C1=N\NC(=S)NCCc1ccccc1 (stereo not given) | -2% | -12 | -6.3 | -17 | ? | -2
O=C(NCCN1CCCC1)c1ccc(Br)cc1 | 15% | 3 | -3.7 | 0 | -4%[15.4 µM] | -14
CC(=O)N1CC=CC1(C)C(=O)NCc1cc(F)cc(C(F)(F)F)c1 (stereo not given) | 4% | 0 | -3.1 | 1 | . | -40
CN(CCc1ccccn1)c1ncnc2[nH]ncc12 | 5% | -4 | -3.5 | -1 | ? | -26
CCn1c(CNC(=O)COc2ccc(C(C)C)cc2)nnc1SCC(=O)NC1CCCCC1C (stereo not given) | -2% | -1 | 0.6 | 7 | -10% | -6
COc1ccc(C2CC(c3cccs3)=NN2c2ccc(C=O)cc2)cc1 (stereo not given) | 4% | 1 | -4.9 | 130 | ? | 3
COc1ccc(N2CCN(C(=O)c3sc4ncn(CC(=O)N5CCCCC5)c(=O)c4c3C)CC2)cc1 | -14% | -10 | -2.6 | 1 | 4% | -11

Reprinted from above (3 entries):
canonical_smiles | gsp antagonist | CtBP-E1A inh | D2 agonist | Six1-Eya2 blk | gsp agonist | D2 PAM
COc1ccccc1NC(=O)C(C)N1C(=O)c2ccccc2C1=O (stereo not given) | 5% | -7 | -5.9 | 3 | -5% | -6
COc1ccccc1N1CCN(C(=O)CCc2ccc(S(=O)(=O)NCC(C)C)cc2)CC1 | -12% | -4 | 0.4 | -2 | -17% | 12
CC(=O)Nc1ccc(S(=O)(=O)Nc2ccc(S(=O)(=O)N3CCCC3)cc2)cc1 | -20% | -5 | -1.3 | -1 | 19% | 5
